VACV mCherry inh – qHTS for Stage-Specific Inhibitors of Vaccinia Orthopoxvirus: mCherry Reporter Primary qHTS. 0.63% of 310,000 active. Potency, µM (series often up to 36.5 µM), inactives show top-dose activity change, negative = inhibition, actives largely listed as inhibitors. Vaccinia virus mCherry reporter infection, fluorescence; about a quarter of the inactives have no number; active = well fitted inhibition curve with a large enough effect; inconclusive = small, poorly fitted or top-dose-only effect; inactive = no such curve, though single readings can be large or run the other way; tested in A549 cells; note: nearly all actives have a fitted effect of over 35% in size; inactives centre near -10
VACV Venus inh – qHTS for Stage-Specific Inhibitors of Vaccinia Orthopoxvirus: Venus Reporter Primary qHTS; Vaccinia virus Venus reporter expression, fluorescence; Potency, µM (doses to about 36.5 µM), without a hit: at the top dose activity change, negative = inhibition, most hits filed as inhibitors; 0.46% of 330,000 active; active means well fitted inhibition curve with a large enough effect; inconclusive means small, poorly fitted or top-dose-only effect; inactive means no such curve, though single readings can be large or run the other way; tested in A549 cells; note: nearly all actives have a fitted effect of over 30% in size; inactives centre near -10
* hit, by the source's call; i = inactive; u = inconclusive; x = not tested or not shown; [ ] = another dose, or the depositor's remark. % is set by controls: 0 for no effect and ±100 for the full control effect; potency is the fitted concentration of half-maximal effect.

item	mol	VACV mCherry inh	VACV Venus inh
1	O=C(NCC[C@H]1CC[C@@H](NC(=O)C2CCC2)[C@@H](CO)O1)c1cc(Cl)cc(Cl)c1	-14%	-22%
2	CCCCCCn1c(N2CCN(c3cccc(Cl)c3)CC2)nc2c1c(=O)[nH]c(=O)n2C	x	-8%
3	Cc1cccc(OC(C)C(=O)Nc2cc(S(=O)(=O)N3CCCCC3)ccc2C)c1 (stereo not drawn)	-27%	-16%
4	Cc1ccc(N(CC(=O)N2CCCCCC2)S(C)(=O)=O)c(C)c1	i	-17%
5	COC(=O)c1ccc(C)c(NC(=O)CN(c2ccccc2)S(=O)(=O)N(C)C)c1	-3%	2%
6	CS(=O)(=O)N(CC(=O)Nc1ccccc1-c1ccccc1)c1ccccc1	-12%	-5%
7	COc1cccc2cc(C(=O)NNC(=O)c3ccc(Br)cc3)c(=O)oc12	0%	-12%
8	CCOC(=O)c1c(C)[nH]c(C(=O)N2CCN(C(=O)OCC)CC2)c1C	-12%	2%
9	Cc1c(NC(=O)C(C)OC(=O)c2nc(Cl)ccc2Cl)c(=O)n(-c2ccccc2)n1C (stereo not drawn)	i	-11%
10	O=C1CC(=C(c2ccccc2)c2ccccc2)C(=O)N1CCCCN1CCN(c2ccccc2)CC1	x	u
11	CCCN1CCN(CCCNC(=O)Cn2ncc3c4ccccc4n(C)c3c2=O)CC1	i	-4%
12	COc1ccc(C2=NS(=O)(=O)N(C)C(C(=O)NCc3ccc4c(c3)OCO4)=C2)cc1OC	22%	12%
13	c1ccc(Cn2nnc3c(N4CCCCC4)ncnc32)cc1	-21%	-14%
14	O=C(Nc1ccc(C(F)(F)F)cc1)C1CCC(CNS(=O)(=O)c2cccc3nsnc23)CC1 (stereo not drawn)	-14%	-6%
15	C#CCOCCOCCOCCNc1nc(N2CCOCC2)nc(N2CCN(C(=O)[C@H](Cc3cc4ccccc4[nH]3)n3cc([C@@H](N)C(C)CC)nn3)CC2)n1 (stereo partly drawn)	6%	-12%
16	CC(NC(=O)C1CCCO1)c1ccccc1 (stereo not drawn)	-14%	-4%
17	NC(CCc1ccccc1)c1csc(NC(=O)Nc2cccc(C(F)(F)F)c2)n1 (stereo not drawn)	u	u
18	COc1ccc(Nc2nc(N)c(C(=O)c3ccc(F)cc3)s2)cc1	u	u
19	COc1ccccc1C1CN(Cc2c(C)nc3sccn23)Cc2ccccc2O1 (stereo not drawn)	-12%	1%
20	O=C(COC(=O)c1ccccc1[N+](=O)[O-])NC(=O)c1ccccc1	-18%	-8%

Another view of part of the listing above:
9: Cc1c(NC(=O)C(C)OC(=O)c2nc(Cl)ccc2Cl)c(=O)n(-c2ccccc2)n1C (stereo not drawn)
10: O=C1CC(=C(c2ccccc2)c2ccccc2)C(=O)N1CCCCN1CCN(c2ccccc2)CC1
11: CCCN1CCN(CCCNC(=O)Cn2ncc3c4ccccc4n(C)c3c2=O)CC1

assay / entry | 9 | 10 | 11
VACV mCherry inh | i | x | i
VACV Venus inh | -11% | u | -4%

(more compounds)
item	mol	VACV mCherry inh	VACV Venus inh
21	CCOc1ccc(C(=O)CCC(=O)N2CCN(c3ccccc3O)CC2)cc1	-1%	-12%
22	COc1ccc(OC)c(S(=O)(=O)n2ccnc2C(C)C)c1	-14%	-19%
23	CCOC(=O)CC1Sc2ccccc2NC1=S (stereo not drawn)	i	3%
24	Cc1ccccc1NC(=O)c1ccccc1N(C)S(=O)(=O)c1ccccc1	i	-6%
25	CCOc1ccccc1C1C(C(=O)Nc2ccccc2)=C(C)Nc2nc(-c3ccccc3)nn21 (stereo not drawn)	-2%	-1%
26	CCO[C@H]1OC(C(=O)N2CCN(C)CC2)=C[C@@H](C)[C@@H]1CCCO	-2%	-5%
27	COc1ccc(NC(=O)C2CCC(CNS(=O)(=O)c3ccc(Br)s3)CC2)cc1OC (stereo not drawn)	-27%	-24%
28	CN(C(=O)CCN1C(=O)C(C)(C)Nc2ccccc21)c1ccccc1	-5%	-27%
29	CC1(C)Cc2c(sc3nc4n(-c5ccccc5)c(=O)c(CCC(=O)O)nn4c(=O)c23)CO1	-27%	-13%
30	COc1ccc(OCC(O)COc2ccc(OC)cc2)cc1	x	-17%
31	COc1ccccc1N1CCN(S(=O)(=O)c2ccc(-c3ccno3)cc2OC)CC1	-17%	-14%
32	CCOC(=O)c1ccc(NC(=S)N(CCN(C)C)Cc2cccs2)cc1	u	-2%
33	COc1ccc(-c2[nH]ncc2C2N=C(N)Nc3nc4ccccc4n32)cc1 (stereo not drawn)	5%	-1%
34	CCOc1ccc(N(C)C(=O)CCc2nnc3ccc(N4CCCC4)nn23)cc1	-18%	-6%
35	COC(=O)C1=C(C)NC(=O)CC1c1ccccc1F (stereo not drawn)	-7%	-6%
36	Nc1ccccc1SC1CC(=O)N(c2ccc3c(c2)OCO3)C1=O (stereo not drawn)	-4%	2%
37	CCN(CC)c1ccc(NC(=O)CCc2nc3cccnc3n2Cc2cccs2)c(C)c1	7%	-8%
38	Cc1ccc(NC(=O)CC2SCCNC2=O)cc1[N+](=O)[O-] (stereo not drawn)	-20%	-16%
39	COc1ccc(C2CC(=O)c3cc(-c4nc(-c5ccc(Cl)cc5)c(C)s4)c(=O)[nH]c3C2)cc1 (stereo not drawn)	-7%	-4%
40	CC(C)NC(=O)N(C)C[C@H]1Oc2ccc(NS(=O)(=O)c3ccccc3)cc2C(=O)N([C@H](C)CO)C[C@@H]1C	i	-1%
41	O=C(CCc1ccccc1)NCc1ccc(F)cc1	i	-12%
42	CCCCc1nnc(NC(=O)C(C)Sc2nc(O)c(Cc3ccccc3)c(=O)[nH]2)s1 (stereo not drawn)	i	-5%
43	CCCOc1c(Cl)cc(C(=O)NC)cc1OC	-2%	-19%
44	CCOc1ccc(C(=O)NCC(=O)OCC(=O)N2C(C)CCCC2C)cc1 (stereo not drawn)	-10%	-10%
45	COc1cc(C(=O)Cc2nc3ccccc3n2C)cc(OC)c1OC	-8%	-8%
46	O=C(Cc1ccccc1[N+](=O)[O-])c1ccc2c(c1)OCO2	i	-7%
47	CC1CN(C(=O)COC(=O)c2cc3ccccc3cc2O)CC(C)O1 (stereo not drawn)	i	-2%
48	CCN1C(=O)c2ccccc2Sc2ccc(NC(=O)Nc3cc(C)cc(C)c3)cc21	u	u
49	COc1cccc(C(C(=O)NC2CCCC2)N(C(=O)c2csnn2)C2CC2)c1 (stereo not drawn)	-5%	-8%
50	Cc1ccn(CCC(=O)N2CCCC(CCC(=O)N3CCN(c4ccccn4)CC3)C2)n1 (stereo not drawn)	-4%	8%
51	N#Cc1ccc(C(=O)OCC(=O)NC(=O)NCc2ccccc2)cc1	-14%	-10%
52	CC1(C2CC(=O)c3c(O)ccc(O)c3C2)OCCO1 (stereo not drawn)	-10%	-20%
53	Cc1cccc(C#N)c1	-14%	-7%
54	Cc1noc(C)c1NC(=O)N(C)C[C@H]1Oc2ccc(NS(=O)(=O)c3ccccc3)cc2C(=O)N([C@H](C)CO)C[C@@H]1C	u	-17%
55	O=C1CCC/C1=C\Nc1ccc(Cl)c([N+](=O)[O-])c1	i	-19%
56	Cc1ccc(CNC(=O)C2CCN(S(=O)(=O)c3ccc4[nH]c(=O)ccc4c3)CC2)cc1	1%	-2%
57	COC(=O)c1cccc(NC(=S)N2CCN(c3ccccc3F)CC2)c1	-3%	-4%
58	Cc1ccccc1/C=N/NC(=O)CSc1nc2ccccc2o1	-11%	-2%
59	O=C(COc1ccc(Cl)cc1)N1CCN(C(=O)c2ccccc2F)CC1	-8%	-8%
60	COCc1cc(C)nc2sc(C(=O)Nc3ccc(OC(F)(F)F)cc3)c(N)c12	-2%	-10%
61	O=C(Nc1ccc(Cl)c(S(=O)(=O)N2CCOCC2)c1)c1ccncc1	-13%	-22%
62	S=C(N/N=C/c1ccc2c(c1)OCO2)NC1CC2CCC1C2 (stereo not drawn)	i	-17%
63	O=C(Nc1ccc(NC(=O)c2cc3ccccc3o2)cc1)c1ccco1	-19%	-13%
64	CCn1ncc(/C=C/C(=O)Nc2c(C)nn(CC)c2C)c1C	i	-9%
65	Cc1cc(Nc2ccc(O)cc2)ccc1N	13%	8%
66	COc1ccccc1NC(=S)N1CCCc2ccccc21	-11%	-8%
67	COc1cc(OC)cc(C(=O)NCCOc2ccccc2)c1	x	15%
68	CC1CN(C(=S)SCCN2C(=O)CCC2=O)CC(C)O1 (stereo not drawn)	-15%	-11%
69	CCCCn1c(N)c(N(CC)C(=O)CCc2ccccc2)c(=O)[nH]c1=O	-14%	-11%
70	O=C(c1cc(-c2cccs2)nc2ccccc12)N1CCN(c2ccccc2)CC1	-23%	-22%
71	O=C1c2ccccc2NC(c2ccccc2)N1c1ccc(O)cc1 (stereo not drawn)	-8%	-2%
72	C[C@H](NC(=O)c1nc[nH]c1C(=O)NCc1ccccc1)c1ccccc1	-22%	-16%
73	CCC(C)[C@H](NC(=O)N1CCN(c2cccc(C(F)(F)F)c2)CC1)C(=O)OC (stereo partly drawn)	-6%	-16%
74	CCOC(=O)NNC(=O)C12CC3CC(CC(C3)C1)C2	-5%	-13%
75	COc1ccccc1C(=O)NC(=S)Nc1cccnc1Cl	-4%	0%
76	Cc1ccc(C)c(Cn2nnc(C(=O)NCc3ccc(Cl)cc3Cl)c2N)c1	i	-6%
77	COc1ccccc1C(=O)NCCn1ccc2ccccc21	x	-22%
78	COc1cc(CNCCNC(=O)c2nonc2N)ccc1OCc1ccc(Cl)cc1	-21%	-29%
79	COc1ccccc1OC(=O)c1ccc(SC)cc1OC	i	-8%
80	CC1CCN(S(=O)(=O)c2cc(C(=O)Nc3ccccn3)ccc2Br)CC1	-9%	-10%

Shown with values under each structure: entries from further up
Below each SMILES – VACV mCherry inh, VACV Venus inh
78: COc1cc(CNCCNC(=O)c2nonc2N)ccc1OCc1ccc(Cl)cc1
    -21%, -29%
79: COc1ccccc1OC(=O)c1ccc(SC)cc1OC
    i, -8%
80: CC1CCN(S(=O)(=O)c2cc(C(=O)Nc3ccccn3)ccc2Br)CC1
    -9%, -10%

(continued)
item	mol	VACV mCherry inh	VACV Venus inh
81	CCN(C(=O)COC(=O)c1cc(S(=O)(=O)N2CCOCC2)c(Cl)cc1Cl)C1CCS(=O)(=O)C1 (stereo not drawn)	i	-6%
82	CNS(=O)(=O)c1cccc(C(=O)NCC(C)(C)N2CCCCC2)c1	16%	5%
83	O=C(O)c1ccccc1S(=O)(=O)CC(=O)N1CCCCC1	i	0%
84	NNC(=O)CN1C(=O)C2(OCCO2)c2ccccc21	i	-11%
85	O=S1(=O)NC(CC2=CCCCC2)C2CCCCC2O1 (stereo not drawn)	0%	-18%
86	O=C(/C=C/c1ccco1)Oc1cc(Br)cc(/C=N/NC(=O)c2ccccc2O)c1	2.8µM*	u
87	CCOC(=O)c1c(NC(=O)C2CC(Cl)=CCC2C(=O)O)sc2c1CCCCC2 (stereo not drawn)	-9%	-4%
88	CN(C(=O)CSc1nnc(C2CC2)n1C)C1CCCc2ccccc21 (stereo not drawn)	-5%	0%
89	CC1(C(=O)NS(=O)(=O)c2cccc(C#N)c2)CCN1C(=O)Cc1cc(F)ccc1F (stereo not drawn)	3%	14%
90	CCOc1ccc(CNC(=O)CN2C(=O)CSc3ccc(S(=O)(=O)N4CCOCC4)cc32)cc1OC	6%[7.34 µM]	15%[7.34 µM]
91	CC(=O)c1cccc(NC(=O)CSc2nnc(-c3ccc(S(=O)(=O)N4CCCC4)cc3)o2)c1	u	u
92	COc1ccc(C(CNC(=O)c2cccc3cccnc23)N(C)C)cc1 (stereo not drawn)	u	0%
93	Cc1ccc(S(=O)(=O)c2nnn3c2nc(NC2CCCCC2)c2sccc23)cc1	u	u
94	Cn1c(=O)[nH]c2cc(-c3noc(-c4cccc(Cl)c4)n3)ccc21	6%	-6%
95	O=C1CN(C(=O)c2ccccc2)C(c2ccccc2)c2cc(Cl)ccc2N1 (stereo not drawn)	-7%	-15%
96	C/C(=N\NC(=S)NC1CCCCC1)c1ccccc1	-4%	-21%
97	Cc1cccc(N2CCN(C(=O)CC(NC(=O)c3ccccc3)c3ccccc3)CC2C)c1 (stereo not drawn)	-19%	-21%
98	Cc1cccc(OCCOC(=O)C2CCN(S(=O)(=O)c3cccs3)CC2)c1	x	-21%
99	COCCCNC(=O)c1cnc2sc(N3CCCCC3)nn2c1=O	14%	6%
100	O=C(/C=C/c1ccc2c(c1)OCO2)N1CCN(c2n[nH]c(=O)[nH]c2=O)CC1	-25%	-14%

Values by screen from the entries so far.
Entries 85 to 94 in VACV mCherry inh, in turn: 0%, 2.8µM*, -9%, -5%, 3%, 6%[7.34 µM], u, u, u, 6%

Continuation.
item	mol	VACV mCherry inh	VACV Venus inh
101	COc1cc2c(cc1OC)C1=C(C#N)CC/C(=N\S(=O)(=O)c3ccccc3)N1CC2	-19%	-14%
102	CCSc1ccc([C@@H]2[C@H]3C(=O)N(CC)C(=O)[C@H]3[C@]3(C(=O)OC)CCCCN23)cc1OC	i	-11%
103	CCCCCC[n+]1ccccc1/C=C/c1ccc(N(C)C)cc1	i	i
104	O=C(NCc1ccncc1)c1cc(C(=O)C2CCCCC2)c[nH]1	i	-6%
105	Cc1nnc(NC(=O)c2ccccc2)s1	-12%	8%
106	CN(Cc1cn(-c2ccccc2)nc1-c1ccc(Cl)cc1)C(=O)CCC(=O)O	-18%	-10%
107	CCOc1ccccc1NS(=O)(=O)c1c[nH]c(C(=O)OC)c1	u	-29%
108	Cc1nc(-c2ccccc2)nc2n[nH]c(N)c12	-11%[7.34 µM]	-8%[7.34 µM]

Compounds as they come. Share with any hit: about 0.82%.
